Assay outcomes: PubChem BioAssay, Broad Institute
DUX4 txn inh: blocks DUX4-driven transcriptional activation. actives 0.8% (n = 37,000). activity change, negative = inhibition, % (concentration not given with the values). 293T-iDUX4 ZSCAN4-Gaussia luciferase reporter, 24 h; stronger effect = lower value;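 active = -10% or lower and over 25 points stronger than a control reporter; inconclusive = -10% or lower with a smaller gap; inactive = above -10%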;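 note: 0% = median of neutral control wells and -100% = median of positive control wells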
DUX4 txn inh difference: also measured in DUX4 txn inh; calls as there; Gaussia minus Italica difference, %; measured here: selective DUX4 reporter inhibition;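 worked out from the two reporters; negative = selective loss of the DUX4 reporter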
DUX4 txn inh control: recorded beside DUX4 txn inh, whose call it bears; activity change, negative = inhibition, %; measured here: Italica tet-on control reporter;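 0 = neutral control and -100 = positive control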
* = called active by the depositor; ? = inconclusive; / = no result given. Not all compounds are listed. The share of hits here may be higher or lower than overall.

structure	DUX4 txn inh	DUX4 txn inh difference	DUX4 txn inh control
C[C@@H]1CN([C@H](C)CO)C(=O)CCCn2nncc2CO[C@@H]1CN(C)Cc1ccc(C(F)(F)F)cc1	-8.1	-13.0	4.9
O=C(C[C@@H]1CC[C@H](NC(=O)NC2CCCCC2)[C@H](CO)O1)NCc1ccccc1	3.0	2.0	1.0
CCCN1[C@H](CO)[C@H](c2ccc(C3=CCCC3)cc2)[C@H]1CNC(=O)NC(C)C	1.8	-1.3	3.1
O=C(C[C@H]1C[C@@H]2c3cc(NC(=O)NC4CCCC4)ccc3O[C@@H]2[C@H](CO)O1)NCc1ccc(-c2ccccc2)cc1	-1.0	-0.1	-0.9
COc1ccc(NC(=O)N(C)C[C@H]2Oc3ncc(C#C[C@@H](C)O)cc3C(=O)N([C@@H](C)CO)C[C@@H]2C)cc1	-2.1	-0.1	-2.0
CN1C(=O)c2cc(NS(=O)(=O)c3cccc(F)c3)ccc2OC[C@H]2O[C@H](CC(=O)N3CCc4ccccc4C3)CC[C@H]21	-0.5	-0.1	-0.3
COc1cc(CN2CC3(CN(C(=O)Nc4c(C)noc4C)C3)c3c([nH]c4cc(OC)ccc34)[C@@H]2CO)cc(OC)c1	-6.4	-32.0	25.7
Cc1ccc(S(=O)(=O)N2CC[C@@H]3[C@@H](CO)Nc4ccc(Br)cc4[C@@H]32)cc1	-1.5	-13.4	11.9
C[C@@H]1CN([C@@H](C)CO)S(=O)(=O)c2ccc(C3=CCCCC3)cc2O[C@@H]1CN(C)C(=O)C1CCCCC1	5.2	3.1	2.1
CCCNC(=O)NC[C@@H]1[C@H](c2ccc(C3=CCCCC3)cc2)[C@@H](CO)N1C(C)=O	-0.9	-0.5	-0.3
COc1ccc2c3c(n(C)c2c1)[C@@H](CO)NCC31CN(C(=O)c2ccccc2)C1	-7.9	5.4	-13.2
C/C=C/c1ccc([C@@H]2[C@@H](CO)N(C(=O)C3CCC3)[C@H]2CN(CC)C(=O)CC)cc1	-2.4	-0.7	-1.7
O=C1CNC[C@H]2[C@@H](c3ccc(C#CC4CCCCC4)cc3)[C@@H](CO)N12	4.8	-10.2	15.0
CO[C@H]1CC[C@@H]2CCN(C)C(=O)[C@H](C)[C@@H](OC)CN(C)C(=O)c3cccc(C#N)c3OC[C@H]1O2	-2.8	-5.0	2.3
COc1ccc(NC(=O)N[C@@H]2CC[C@@H](CCNC(=O)CN3CCOCC3)O[C@@H]2CO)cc1	1.0	4.4	-3.4
Cc1ccc(-c2ccc([C@@H]3[C@@H](CO)N4C(=O)CN(C(=O)Nc5ccc(F)cc5)C[C@H]34)cc2)cc1	?	/	/
C[C@@H]1CN([C@@H](C)CO)C(=O)c2cc(N(C)C)ccc2O[C@H]1CN(C)Cc1ccc(Oc2ccccc2)cc1	0.3	0.8	-0.5
COc1ccc(S(=O)(=O)Nc2ccc3c(c2)C(=O)N([C@@H](C)CO)C[C@@H](C)[C@@H](CN(C)C(=O)CCC(F)(F)F)OCCCC[C@@H](C)O3)cc1	-0.2	0.3	-0.5
CC(=O)N1[C@H](CNC(=O)C2CC2)[C@@H](c2ccc(-c3ccccc3)cc2)[C@@H]1CO	0.9	0.7	0.2
COc1ccccc1CNC(=O)C[C@H]1C[C@@H]2c3cc(NC(=O)Nc4ccc(C(F)(F)F)cc4)ccc3O[C@@H]2[C@@H](CO)O1	2.3	-9.2	11.5
O=C(C[C@H]1CC[C@H]2[C@@H](COC[C@@H](O)CN2Cc2cc(F)cc(F)c2)O1)Nc1nccs1	?	/	/
Cc1ccc(S(=O)(=O)N2C[C@@H]3N[C@H](C2)C3c2ccc(/C=C/c3ccccc3)cc2)cc1 (some centres not stated)	?	9.6	-5.9
Cc1ccc(S(=O)(=O)Nc2cccc3c2O[C@@H](CN(C)Cc2ccncc2)[C@H](C)CN([C@@H](C)CO)C3=O)cc1	-0.2	-4.2	4.0
CC=Cc1ccc2n(c1=O)C[C@@H]1[C@@H](CO)[C@H](C(=O)NCC)[C@H]2N1C(=O)Nc1cc(F)ccc1F (mixture of isomers)	0.5	0.2	0.3
C[C@@H]1CN([C@@H](C)CO)C(=O)c2cc(NC(=O)Nc3ccc(C(F)(F)F)cc3)ccc2O[C@@H](C)CCCCO[C@H]1CN(C)S(=O)(=O)c1ccc(Cl)cc1	-3.1	-6.2	3.1
CO[C@H]1CN(C)C(=O)c2cc(NC(C)=O)ccc2OC[C@@H](C)NC[C@H]1C	-2.9	-2.9	0.0
COCC(=O)N1[C@H](CO)[C@H]2c3ccccc3N(C(=O)c3ccncc3)C[C@H]21	2.8	-3.1	5.9
C[C@H](CO)N1C[C@H](C)[C@@H](CN(C)C(=O)C2CCOCC2)Oc2ncc(-c3cccc(C#N)c3)cc2C1=O	-2.9	0.7	-3.5
CN1CCN(C(=O)C[C@H]2C[C@@H]3c4cc(NS(C)(=O)=O)ccc4O[C@@H]3[C@@H](CO)O2)CC1	4.3	1.4	3.0
CO[C@H](CN(C)CC1CCOCC1)[C@@H](C)CN(C(=O)Nc1ccc(F)cc1)[C@H](C)CO	1.0	-7.2	8.2
OC[C@@H]1[C@H](c2ccc(/C=C/c3ccccc3)cc2)[C@@H]2CN(Cc3ccncc3)CCCCN12	-5.5	-8.0	2.6
CN1C(=O)c2cc(NC(=O)c3cccs3)ccc2OC[C@@H]2O[C@H](CC(=O)NCC(F)(F)F)CC[C@H]21	2.8	-0.5	3.3
O=C(C[C@@H]1CC[C@@H]2[C@H](COC[C@H](O)CN2S(=O)(=O)c2cccc(F)c2)O1)NCc1ccncn1	5.8	4.1	1.7
Cc1ccc(S(=O)(=O)N[C@@H]2CC[C@H](CC(=O)NCc3ccncn3)O[C@@H]2CO)cc1	-3.8	2.6	-6.3
C[C@@H]1CN([C@@H](C)CO)C(=O)c2cc(NS(=O)(=O)c3cn(C)cn3)ccc2O[C@@H](C)CCCCO[C@H]1CN(C)Cc1ccc2c(c1)OCO2	-1.1	-2.3	1.2
COc1ccc2c3c([nH]c2c1)[C@H](CO)N(C(=O)Nc1ccc(F)cc1)CC31CN(C(=O)Cc2ccccc2)C1	?	/	/
C[C@H]1CN([C@@H](C)CO)S(=O)(=O)c2ccc(C#Cc3ccccc3F)cc2O[C@@H]1CN(C)C(=O)Cc1cccnc1	-1.1	-1.9	0.7
C[C@@H]1CN([C@H](C)CO)C(=O)CCCn2nncc2CO[C@H]1CN(C)S(=O)(=O)c1cccs1	-0.2	-1.2	1.0
CNC[C@H]1Oc2ccc(NS(=O)(=O)c3ccc(OC)cc3)cc2C(=O)N([C@@H](C)CO)C[C@@H]1C	-0.9	-0.2	-0.7
O=C(NC[C@H]1[C@@H](c2ccccc2)[C@@H](CO)N1Cc1ccccn1)C1CC1	-1.2	-10.2	9.0
CCN1[C@H](C(=O)Nc2ccccc2)[C@@H](CO)[C@@H]2Cn3c(ccc(-c4ccc(F)cc4)c3=O)[C@@H]21	-1.3	0.5	-1.8
CN1c2ccc(-c3ccccc3)cc2[C@H]2[C@H](CCN2S(=O)(=O)c2ccccc2F)[C@H]1CO	?	/	/
O=C(C[C@H]1CC[C@H]2[C@@H](COC[C@H](O)CN2CC2CCCCC2)O1)NCc1ccc(Cl)cc1	-4.1	5.2	-9.3
CN(C)CCCNC(=O)C[C@@H]1CC[C@H]2[C@@H](COC[C@@H](O)CN2Cc2cccc(C(F)(F)F)c2)O1	-5.6	-0.7	-4.8
C[C@H]1CCCCO[C@@H](CN(C)C(=O)c2ccncc2)[C@@H](C)CN([C@@H](C)CO)C(=O)c2cc(N(C)C)ccc2O1	2.0	1.7	0.3
CCCNC(=O)Nc1ccc2c(c1)C(=O)N(C)[C@@H]1CC[C@H](CC(=O)NCc3ccccc3)O[C@H]1CO2	-0.4	-0.5	0.1
C[C@@H]1CN([C@H](C)CO)C(=O)c2cc(Br)cnc2O[C@H]1CN(C)C(=O)Nc1ccc2c(c1)OCO2	-1.6	0.9	-2.5
CCCC#Cc1ccc([C@@H]2[C@@H](CO)N3C(=O)CN(S(=O)(=O)c4ccccc4C)C[C@@H]23)cc1	8.7	-19.5	28.2
COC(=O)N(C)C[C@@H]1OCc2cn(nn2)CCCC(=O)N([C@H](C)CO)C[C@H]1C	3.6	3.8	-0.2
COC(=O)C[C@H]1CC[C@H]2[C@@H](COC[C@@H](O)CN2S(=O)(=O)c2ccccc2OC)O1	-2.3	-4.9	2.6

Entries of single compounds from above:
OC[C@@H]1[C@H](c2ccc(/C=C/c3ccccc3)cc2)[C@@H]2CN(Cc3ccncc3)CCCCN12 is listed with DUX4 txn inh = -5.5; DUX4 txn inh difference = -8.0; DUX4 txn inh control = 2.6
CN1C(=O)c2cc(NC(=O)c3cccs3)ccc2OC[C@@H]2O[C@H](CC(=O)NCC(F)(F)F)CC[C@H]21 is listed with DUX4 txn inh = 2.8; DUX4 txn inh difference = -0.5; DUX4 txn inh control = 3.3

Continued.
structure	DUX4 txn inh	DUX4 txn inh difference	DUX4 txn inh control
Cc1ccc(-c2ccc([C@H]3[C@H]4CN(C(=O)Nc5ccccc5)CCCCN4[C@H]3CO)cc2)cc1	13.0	62.8	-49.8
O=C(C[C@@H]1CC[C@@H]2[C@H](COC[C@H](O)CN2CCc2ccccc2)O1)NCCCN1CCOCC1	1.9	0.2	1.7
O=C(C[C@@H]1CC[C@H]2[C@@H](COC[C@H](O)CN2CC2CCCCC2)O1)NCc1ccc(Cl)cc1	-6.5	-0.6	-5.9
COc1ccccc1C#Cc1ccc([C@@H]2[C@@H](C#N)N(C(=O)C3CC3)[C@@H]2CO)cc1	-1.2	-2.8	1.6
Cc1ccc(S(=O)(=O)N(C)C[C@@H]2Oc3ncc(Br)cc3C(=O)N([C@@H](C)CO)C[C@H]2C)cc1	-0.8	0.9	-1.7
CNC(=O)C[C@@H]1CC[C@H]2[C@@H](COC[C@H](O)CN2S(=O)(=O)c2ccccc2Cl)O1	5.3	0.5	4.8
COc1ccccc1C(=O)Nc1ccc2c(c1)OC[C@@H](C)NC[C@H](C)[C@@H](OC)CN(C)C2=O	-6.1	-4.2	-1.9
C[C@@H]1CCCCO[C@H](CN(C)C(=O)Nc2ccc(C(F)(F)F)cc2)[C@H](C)CN([C@@H](C)CO)C(=O)c2cc(NS(=O)(=O)c3cn(C)cn3)ccc2O1	1.6	-2.2	3.8
C[C@H](CO)N1C[C@H](C)[C@H](CN(C)Cc2ccncc2)OCCCC[C@H](C)Oc2ccc(NS(=O)(=O)c3ccc(Cl)cc3)cc2C1=O	0.9	-1.1	2.0
O=C(C1CCC1)N1CC(=O)N2[C@H](C1)[C@H](c1ccc(Br)cc1)[C@@H]2CO	3.5	-0.4	3.9
CO[C@H]1CN(C)C(=O)c2ccc(NC(=O)NC(C)C)cc2OC[C@H](C)N(CC2CC2)C[C@@H]1C	-3.7	-2.4	-1.3
COCCNC(=O)C[C@@H]1C[C@H]2c3cc(NS(=O)(=O)c4ccccc4)ccc3O[C@H]2[C@H](CO)O1	0.5	-7.0	7.5
C[C@@H](NC(=O)[C@H]1[C@H](CO)[C@H]2Cn3c(cccc3=O)[C@H]2N1CC1CCCCC1)c1ccccc1	-6.7	1.9	-8.6
C[C@H](NC(=O)[C@H]1[C@H](CO)[C@H]2Cn3c(cccc3=O)[C@H]2N1CCC(F)(F)F)c1ccccc1	4.6	15.0	-10.4
COCC(=O)N1[C@H](C#N)[C@H](c2ccc(C3=CCCCC3)cc2)[C@H]1CO	-1.0	-7.6	6.5
N#Cc1ccc(-c2ccc([C@H]3[C@@H](CO)N4C(=O)CN(C(=O)Cc5ccccc5)C[C@@H]34)cc2)cc1	0.3	1.6	-1.4
CN1C(=O)c2cc(NC(=O)Nc3ccccc3F)ccc2OC[C@@H]2O[C@H](CC(=O)NCc3ccc(-c4ccccc4)cc3)CC[C@H]21	-9.7	8.1	-17.8
O=C(C[C@@H]1CC[C@H](NC(=O)c2ccc(F)cc2)[C@@H](CO)O1)NCCc1ccccc1	-2.1	2.4	-4.6
O=C(c1cccc(F)c1)N1CCCCN2[C@H](CO)[C@@H](c3ccc(C#CC4(O)CCCC4)cc3)[C@@H]2C1	-4.2	-23.2	19.1
CO[C@@H](CN(C)S(=O)(=O)c1cn(C)cn1)[C@H](C)CN(C(=O)Nc1ccc(C(F)(F)F)cc1)[C@@H](C)CO	-5.0	-0.4	-4.6
CCCNC(=O)[C@@H]1[C@@H](CO)[C@@H]2Cn3c(ccc(-c4ccc(F)cc4)c3=O)[C@H]1N2CC	1.7	-4.1	5.8
CCCNC(=O)[C@@H]1[C@@H](CO)[C@@H]2Cn3c(cccc3=O)[C@H]1N2C(=O)Nc1cc(F)ccc1F	6.8	-4.0	10.8
COc1ccc(NC(=O)N(C)C[C@@H]2OCc3ccccc3-c3c(n(C)c4ccccc34)C(=O)N([C@H](C)CO)C[C@@H]2C)cc1	?	/	/
